Screens (PubChem)
Mtb growth = Mycobacterium tuberculosis H37Rv growth inhibition, cell based, confirmatory dose response (AID 1949). most inactive calls were filed without a number and no value below 0 was filed. one-dose inhibition, % at 10 µg/mL; IC50 in µg/mL for titrated hits. 100,000 tested, 1.6% active;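 active = confirmed in a dose series; inconclusive = about 50% or more but not retested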;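 also: bacteria grown 7 days with compound before Alamar blue readout; 0% = untreated bacteria and 100% = reference antibiotic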
* marks the source's active call; other numbers are inactive results; i = inactive; ? = inconclusive.

| Molecule | Mtb growth |
| --- | --- |
| CCOC(=O)c1c(NC(=O)c2sc3ccccc3c2Cl)sc(C(C)=O)c1C | i |
| CCC(NC(=O)NCc1ccc2c(c1)OCO2)(C(F)(F)F)C(F)(F)F | i |
| Cc1ccc(N=C2NC(=O)CC(C(=O)Nc3ccccc3)S2)cc1C (stereo not given) | i |
| Cc1cccc(OCC(=O)NC(=S)Nc2ccccc2N2CCCCC2)c1C | i |
| COc1cc(OC)c(NC(=O)COc2ccc(Br)cc2)cc1Cl | i |
| O=C(Nc1ccc(CN2CCOCC2)cc1)c1ccc(-c2ccc(Br)cc2)o1 | ? |
| O=c1c(NC2CC2)c(Cl)cnn1C12CC3CC(CC(C3)C1)C2 | 0% |
| Cc1cc(=O)oc2cc(OCC(=O)OC3CCCCC3)ccc12 | 1.5µg/mL* |
| CCC(=O)Nc1ccc(Cl)c(NC(=O)c2cccnc2)c1 | i |
| CCOc1ccccc1NS(=O)(=O)c1ccc(SC)cc1 | i |
| Cc1ccc(-n2c(SCC(=O)N3C(C)CCCC3C)nnc2-c2ccccc2)cc1C (stereo not given) | i |
| COc1ccccc1NC(=O)C(=O)NCc1ccncc1 | i |
| Cc1nc(N2CCOCC2)[nH]c(=O)c1C | i |
| COc1ccc(N2C(=O)CC(N3CCN(c4ncccn4)CC3)C2=O)cc1 (stereo not given) | i |
| Oc1ccc(NCc2cc(Cl)ccc2OCc2ccc(Cl)cc2)cc1 | i |
| O=C(CC1Sc2ccccc2NC1=O)Nc1ccccc1C(F)(F)F (stereo not given) | i |
| O=C(CSc1n[nH]c(-c2ccncc2)n1)N1c2ccccc2Sc2ccccc21 | i |
| CCc1c(C)nc(SCCC(C)C)c(C#N)c1C | i |
| Cc1cc(C(=O)Nc2ccc3c(c2)OCCO3)c(-c2ccccc2)o1 | i |
| O=C(NCc1ccco1)c1c(F)cccc1Cl | i |
| CCCC(CCC)C(=O)Nc1ccc(NC(=O)c2ccco2)cc1 | i |
| Nc1nc(Nc2cccc(C(F)(F)F)c2)sc1C(=O)c1ccccc1 | i |
| COC(=O)Cn1c(C)nc2ccccc21 | i |
| CSc1cccc(NS(=O)(=O)c2ccc(C)cc2)c1 | i |
| Cc1cc(Br)ccc1OCC(=O)O/N=C(\N)c1ccc([N+](=O)[O-])cc1 | i |
| O=C(Nc1ccc(Br)cc1)C1CCN(C(=O)c2ccc(Cl)cc2)CC1 | i |
| CCOC(=O)c1ccc(NC(=O)c2ccc(S(=O)(=O)N3CCCCC3C)cc2)cc1 (stereo not given) | i |
| CCOc1cc(C)c(Cl)cc1S(=O)(=O)n1ccnc1C | i |
| CC(C)(Oc1ccc(Cl)cc1)C(=O)O/N=C(\N)Cc1cccc2ccccc12 | i |
| O=c1c2ccccc2nc(/C=C/c2ccccc2F)n1-c1ccc2ccccc2c1 | i |
| CCOC(=O)c1c(NC(=O)CSc2ncn[nH]2)sc2c1CCC2 | i |
| COc1cccc(OC)c1C(=O)Nc1c(F)c(F)c(F)c(F)c1F | 6% |
| CCCCc1ccc(NS(=O)(=O)c2cc3c4c(cccc4c2)C(=O)NC3=O)cc1 | i |
| COc1cc(CNc2ccc(C(=O)O)cc2)ccc1OCc1ccccc1Cl | 27% |
| CCOc1ccccc1OCC(=O)Nc1cc(OC)ccc1OC | 1% |
| NC(=O)C1CCN(C(=O)CN2CCc3ccccc32)CC1 | 2% |
| O=C1C(Cc2c[nH]c3ccccc23)NC(=S)N1c1ccccc1Cl (stereo not given) | i |
| COc1ccc(NC(=O)C2CCCC2)cc1 | i |
| O=C(O)C1CCCCC1C(=O)N1CCN(c2ccc(Cl)cc2)CC1 (stereo not given) | 1% |
| COc1ccc(Cc2nnc3c4cnn(-c5ccccc5)c4ncn23)cc1 | i |
| O=C1CC(c2ccccc2)Cc2nc3nc4ccccc4n3cc21 (stereo not given) | 1% |
| C=CCN(CC=C)C(=O)Nc1ccc(C(C)=O)cc1 | i |
| COc1ccc(S(=O)(=O)N2CCN(c3ccc(Cl)cc3)CC2)cc1OC | i |
| CS(=O)(=O)c1ccc2nc(NC(=O)c3ccc(COc4ccccc4Cl)o3)sc2c1 | i |
| CCCCC(=O)Nc1ccc(NC(=S)NC(=O)c2oc3ccccc3c2C)cc1OC | i |
| c1ccc2nc(-c3nc4ccccc4s3)ccc2c1 | 1% |
| Cc1occc1C(=O)Nc1sc(C)c(-c2ccccc2)c1C(N)=O | i |
| CCC(Oc1ccccc1)C(=O)N1CCN(c2cccc(C(F)(F)F)c2)CC1 (stereo not given) | 5% |
| Cc1ccc(NC(=O)CSc2nnc(SCc3cccc4ccccc34)s2)cc1Cl | i |
| Cc1ccc(C(=O)N(C)C2(C)CCS(=O)(=O)C2)cc1 (stereo not given) | i |
| N#C/C(=C\Nc1ccc2c(c1)OCCO2)c1nc2ccccc2[nH]1 | ? |
| O=C(CS(=O)c1ccc(C(F)(F)F)cc1[N+](=O)[O-])Oc1ccccc1 (stereo not given) | 3% |
| CC(Sc1nnc(N)s1)C(=O)Nc1nc2c(s1)CCCC2 (stereo not given) | 0.75µg/mL* |
| CN1C(=O)CC(Nc2ccc(N(C)C)cc2)C1=O (stereo not given) | i |
| CC(C)CNC(=O)c1ccccc1NC(=O)c1ccc(N(C)S(=O)(=O)c2ccccc2)cc1 | 13% |
| Cc1ccccc1C(=O)NC(=S)Nc1ccccc1C(=O)O | i |
| CC(=O)N1c2ccccc2NC2=C(C(=O)CC(C)C2)C1c1ccccc1 (stereo not given) | 3% |
| Cc1ccc(SCCC(=O)N2CCCC2)cc1 | i |
| COc1ccc(CC(=O)NCc2nnc(SCc3ccc(Cl)cc3Cl)n2C)cc1 | i |
| Cc1nc(NC(=O)CN(C)S(=O)(=O)c2ccc(Cl)cc2)sc1C | i |

Continued:
| Molecule | Mtb growth |
| --- | --- |
| Cc1ccc(C(=O)O)cc1NC(=S)NC(=O)c1ccc(Cl)cc1 | i |
| CCOC(=O)COc1ccc(S(=O)(=O)NCc2ccncc2)cc1 | i |
| Cc1ccc(-c2nc(-c3ccc([N+](=O)[O-])cc3)no2)cc1 | i |
| O=C(c1ccc(COc2ccccc2Cl)cc1)N1CCN(c2ccccc2)CC1 | i |
| CCC(CO)NC(=O)C(=O)NCc1ccc(Cl)cc1 (stereo not given) | i |
| O=C(NC(=S)Nc1ccc(N2CCCC2)c(Cl)c1)c1cccc(I)c1 | i |
| CS(=O)(=O)N(CC(=O)N1CCN(c2ccccc2)CC1)c1cccc([N+](=O)[O-])c1 | i |
| Cc1cc(NS(=O)(=O)c2ccc(NC(=O)c3cccnc3)cc2)no1 | i |
| CCOC(=O)C1CCN(C(=O)Cn2cc(C#N)c3ccccc32)CC1 | 1% |
| CCOc1cccc(C(=O)Nc2cc(C(=O)OC)cc(C(=O)OC)c2)c1 | i |
| Cc1nn(-c2ccccc2[N+](=O)[O-])c(=O)c2ccccc12 | i |
| NC(=O)c1ccccc1NC(=O)C(Cc1ccccc1)N1C(=O)c2ccccc2C1=O (stereo not given) | i |
| COC(=O)CSc1nc(N(C)C)nc(N(C)C)n1 | i |
| O=C(CCc1ccccc1)Nc1nnc(SCC(=O)c2ccc3ccccc3c2)s1 | i |
| Cc1ccc(C(=O)Nc2ccc3c(c2)nc2n3CCN(Cc3ccccc3)C2)cc1 | i |
| CC1CC2(CCCCC2)N2C(=O)C(=O)c3cccc1c32 (stereo not given) | i |
| CCC(C)(C)c1ccc(OCCCCN2CCN(C)CC2)cc1 | i |
| Cc1cc(C)c(S(=O)(=O)N(C)CC(=O)NCc2ccc(Cl)cc2Cl)c(C)c1 | i |
| Cc1ccccc1OCc1nnc(SCC(=O)NC2CCCCC2)n1C | i |
| Cc1[nH]c2ccccc2c1C1(O)C(=O)N(CCCc2ccccc2)c2ccccc21 (stereo not given) | 2% |

Part of the list above in another layout.
CC(=O)N1c2ccccc2NC2=C(C(=O)CC(C)C2)C1c1ccccc1 (stereo not given)
  Mtb growth: 3%
Cc1ccc(SCCC(=O)N2CCCC2)cc1
  Mtb growth: i
COc1ccc(CC(=O)NCc2nnc(SCc3ccc(Cl)cc3Cl)n2C)cc1
  Mtb growth: i

Additional compounds follow:
| Molecule | Mtb growth |
| --- | --- |
| Cc1ccc(S(=O)(=O)N(CC(=O)Nc2ccccc2)Cc2ccccc2Cl)cc1 | i |
| Fc1ccc(N2CCN(C(=S)Nc3ccc(F)cc3F)CC2)cc1 | i |
| Nc1cc(N)nc(SCC(=O)N(c2ccccc2)c2ccccc2)n1 | i |
| Cn1c(SCC(=O)Nc2ccc(I)cc2)nnc1-c1ccc(Cl)cc1 | i |
| CCC(CC)C(=O)Nc1ccccc1C(F)(F)F | i |
| CCC(=O)n1nc(NCc2ccc(F)cc2)nc1NCc1ccc(F)cc1 | 18% |
| CCC1(c2ccccc2)NC(=S)N(c2ccc(Cl)cc2)N1 (stereo not given) | 25% |
| CCOc1ccc(-n2cnnn2)cc1S(=O)(=O)N1CCOCC1 | 3% |
| C=CCn1c(CCCNC(C)=O)nc2ccccc21 | i |
| Cc1cc(C)nc(N/C(=N\S(=O)(=O)Cc2ccccc2)Nc2ccccc2Br)n1 | i |
| CCOC(=O)c1c(C)oc2ccc(OCC(=O)c3ccccc3)cc12 | i |
| O=C(c1ccc(-c2ccccc2)cc1)N1CCN(Cc2cccnc2)CC1 | i |
| O=C(CSc1nnc2c3ccccc3n(CCc3ccccc3)c2n1)NCc1ccco1 | i |
| Cc1ccc(S(=O)(=O)Nc2c(C)cccc2C(C)C)cc1[N+](=O)[O-] | 3% |
| COC(=O)c1ccccc1NC(=O)C(CC(=O)O)NCc1ccccc1 (stereo not given) | i |
| O=C(CSc1nc(O)c(Cc2ccccc2)c(=O)[nH]1)N(c1ccccc1)c1ccccc1 | i |
| O=C(Nc1ccc(Cl)cn1)Nc1ccccc1C(F)(F)F | i |
| N#CC1=C(SCc2ccccc2Cl)NC(=O)CC1c1cccs1 (stereo not given) | 1% |
| CC(C)(C)NS(=O)(=O)c1ccc(NC(=O)CN2C(=O)c3ccccc3C2=O)cc1 | i |
| O=C(COc1ccccc1)Nc1sc2c(c1C(=O)NCCc1ccccc1)CCC2 | 4% |

(listing goes on)
| SMILES | Mtb growth |
| --- | --- |
| CCCCC(=O)Nc1cccc(NC(=O)c2ccc(Br)o2)c1 | 11% |
| COC(=O)Nc1sc2c(c1C(N)=O)CCC2 | i |
| COCCNCCCOc1ccc(Br)cc1Cl | i |
| CC(NC(=O)Nc1ccccc1Cl)(C(F)(F)F)C(F)(F)F | 1% |
| Cc1occc1C(=O)Nc1cc(C(F)(F)F)ccc1Cl | i |
| CCc1ccc(NC(=O)CN(c2cccc(C)c2C)S(C)(=O)=O)cc1 | i |
| CCOC(=O)c1cnc2ccc(C(=O)OC)cc2c1Nc1ccc(OC)cc1 | 3% |
| O=C1CCCCCCCC(=O)OCCCCCCO1 | i |
| O=C1c2ccccc2C(=O)N1CCn1c2ccccc2c2nc3ccccc3nc21 | i |
| Cc1ccc(OCCCC(=O)Nc2ccc(C)c(Cl)c2)c(C)c1 | 20% |
| Cc1ccc(N=C2N=C(N)c3ccccc32)cc1Cl | i |
| Cc1ccccc1NC(=O)CSc1nc(C)c(C(=O)Nc2ccccc2)c(-c2ccc(Cl)cc2)c1C#N | 27% |
| CC(C)CCOc1ccc2c3c(c(=O)oc2c1)CCC3 | i |
| CC(=O)CC(=O)Nc1ccc(C)c(C)c1 | 23% |
| CCCc1cc(C(=O)Nc2ccc(Cl)cn2)cs1 | ? |
| CCCC(=O)Nc1nc(CC(=O)OCC)cs1 | i |
| CCn1c(CCNC(=O)c2cccs2)nnc1SCC(=O)Nc1nccs1 | i |
| CCOc1cc(CNc2ccc(O)cc2)cc(Br)c1OCc1cccs1 | i |
| Cc1cc(Cl)ccc1N(CC(=O)N1CCC(C)CC1)S(C)(=O)=O | i |
| COc1c(C)cccc1C(=O)NC(=S)Nc1ccc(O)c(-c2nc3cc(C)cc(C)c3o2)c1 | i |
| O=c1oc2ccccc2cc1-c1cn2cc(Cl)ccc2n1 | i |
| Cc1cccc(-c2nnc(SCC(=O)Nc3nc(-c4ccccc4)c(C)s3)n2C)c1 | i |
| CCc1ccccc1N(CC(=O)Nc1ccccc1Sc1ccccc1)S(C)(=O)=O | 7% |
| COC(=O)c1sc2cc(NC(=S)N3CCC4(CC3)OCCO4)ccc2c1Cl | i |
| COC(=O)c1ccccc1NC(=O)n1cc(C)cn1 | i |

In another format: results already given.
O=c1oc2ccccc2cc1-c1cn2cc(Cl)ccc2n1
  Mtb growth: i
Cc1cccc(-c2nnc(SCC(=O)Nc3nc(-c4ccccc4)c(C)s3)n2C)c1
  Mtb growth: i
CCc1ccccc1N(CC(=O)Nc1ccccc1Sc1ccccc1)S(C)(=O)=O
  Mtb growth: 7%

The results go on:
| SMILES | Mtb growth |
| --- | --- |
| CCCc1cc(=O)n2c(nc3ccccc32)[nH]1 | 1% |
| Cc1ccc(C(=O)c2coc3c2C(=O)c2ccccc2C3=O)cc1 | i |
| CCOc1cc(CNCCO)cc(Cl)c1OCc1ccc(F)cc1 | i |
| CCOc1nc(NCCC2=CCCCC2)nc(N2CC3CC(C2)c2cccc(=O)n2C3)n1 (stereo not given) | i |
| Cc1ccc(C(=O)Nc2cccc(C(F)(F)F)c2)c(F)c1F | 3% |
| CC1(C)CC(=O)c2sc(NC(=O)c3ccc(C(=O)c4ccccc4)cc3)nc2C1 | 4% |
| Cc1cc(C(=O)NCc2ccc(S(N)(=O)=O)cc2)cs1 | i |
| Cc1cc(=O)oc2cc3occ(-c4ccc(Br)cc4)c3cc12 | i |
| CCOc1ccccc1NC(=O)COc1c(C)ccc(C)c1C | i |
| COc1cccc(CN2CCN(C(=O)COc3cccc(C)c3)CC2)c1OC | i |
| C=CCn1c(Sc2ccccc2)nc2c1c(=O)[nH]c(=O)n2C | i |
| Cc1ccc2c(Cl)c(C(=O)Nc3ccccc3Oc3ccccc3)sc2c1 | i |
| COc1cccc(NC(=O)CSc2nnc(-c3ccccc3)n2-c2ccc(Cl)cc2)c1 | i |
| CCN(c1ccccc1)S(=O)(=O)c1ccc(CC(C)C)cc1 | 8% |

An excerpt of these results, with each value named.
CCOc1ccccc1NC(=O)COc1c(C)ccc(C)c1C
  Mtb growth = i

COc1cccc(CN2CCN(C(=O)COc3cccc(C)c3)CC2)c1OC
  Mtb growth = i

C=CCn1c(Sc2ccccc2)nc2c1c(=O)[nH]c(=O)n2C
  Mtb growth = i

Cc1ccc2c(Cl)c(C(=O)Nc3ccccc3Oc3ccccc3)sc2c1
  Mtb growth = i

An excerpt; count on the stated rates, not on these rows.
